# Bioassay records from PubChem BioAssay.
# RN4220 kill: S. aureus RN4220 growth inhibition | OD600, 16 h | 330,000 tested, 0.33% active | inhibition, % (no concentration beside the values) | AID 1259311;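 active means z-score of -3 or lower and OD600 up to 0.18 on both plates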;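 further: plate controls were untreated cells for no effect and reference antibiotic for full effect; stock transfer was 100 nL into about 80 µL; one replicate is shown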
# Mtb hypoxia rep: inhibitors of hypoxia-regulated fluorescent reporter in Mycobacterium tuberculosis; M. tuberculosis hypoxia-regulated fluorescent reporter, fluorescence; fluorescence inhibition, % (test concentration not listed); 300,000 tested, 0.1% active; AID 1159583;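 active means 35 to 45% if threefold the growth effect, above 45% if 1.5-fold the growth effect; inactive means the rest, general growth blockers included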;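 further: wells of about 50 µL received 100 nL stock; 0% = vehicle wells and 100% = reference inhibitor wells; whole bacteria with a GFP reporter of the hypoxia response; strong numbers were not always called active; many hits fall short of the cut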
# Autofluor counter: counter-screen for toxin protease inhibitors: compound fluorescence | fluorescence intensity (concentration not given with the values) | 360,000 tested, 3.1% active | compound autofluorescence counterscreen, microsphere flow cytometry; stronger effect = higher value | AID 624483;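 active means at least 3 SD above the mean of all compounds, about 16000 in these data; inconclusive means too few beads counted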;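 further: 100 nL of 1 mM stock went into each well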
# ugtP null kill: growth inhibition of S. aureus ugtP deletion strain. S. aureus RN4220 ugtP deletion, OD600 growth, 16 h; some inactives read as strong as hits. growth inhibition, % (test concentration not listed). 330,000 tested, 0.54% active;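 active means z-score under -3 and OD600 up to 0.15 on both plates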;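 further: plate controls were untreated wells for no effect and antibiotic for full effect; wells of about 80 µL received 100 nL stock; the first replicate is given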
# BJeLR viability: kills HRASV12-expressing BJeLR cells; BJeLR (HRASV12) viability, CellTiter-Glo ATP luminescence, 48 h; reference of the scale not given here; inhibition, % (no concentration beside the values); 300,000 tested, 0.17% active; AID 1554;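 active means replicate mean above 50%; inconclusive means above 50% but judged a plate artefact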;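 further: 50 nL library stock added to about 25 µL; numbers are from one replicate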
# PrP 5UTR inh: inhibition of PrP 5' UTR reporter expression; cell-based PrP 5' UTR mRNA reporter, plate reader; inhibition, % (no concentration beside the values); 340,000 tested, 0.35% active;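 active means every replicate at 50% or more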;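 further: 0 = median of the neutral control wells; tested in H4 reporter cells; numbers are from one replicate; inactives centre near -14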
# Mtb hypoxia rep growth: recorded beside Mtb hypoxia rep, whose call it bears; growth inhibition, %; measured here: M. tuberculosis growth (absorbance);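 0% = vehicle and 100% = reference antibiotic; read after six days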
# * marks the source's active call; other numbers are inactive results; ? = inconclusive; . = not tested or not shown.
SMILES,RN4220 kill,Mtb hypoxia rep,Mtb hypoxia rep growth,Autofluor counter,ugtP null kill,BJeLR viability,PrP 5UTR inh
CCOC(=O)Cc1csc(/C(=N/O)C(N)=O)n1,.,.,.,4295,.,-2,-27
Cc1cc(C(=O)NN)c(Cl)cc1Cl,2.9,7,12,3948,2,-6,-63
CCc1ccc(NC(=O)CC2C(=O)N(c3cccc(OC)c3)C(=O)N2CCOC)cc1 (stereo not drawn),3.2,-5,5,3908,3,-1,-13
C=CCn1c(C(CC)CC)nc2ccccc21,3.7,9,7,4311,10,-5,.
COc1ccc(NC(=O)C2CCCCN2S(=O)(=O)c2ccc(F)cc2)c(OC)c1 (stereo not drawn),1.8,6,0,17466*,10,-3,-15
CSCCC(NS(=O)(=O)c1cccs1)C(=O)NCc1ccc(C)cc1 (stereo not drawn),4.0,8,1,7729,2,4,-14
CC(OC(=O)Cc1n[nH]c(=O)c2ccccc12)C(=O)Nc1cccc([N+](=O)[O-])c1 (stereo not drawn),-4.2,-7,7,3331,-2,2,-8
COc1ccc(CC(=O)Nc2ccc(/C(C)=N/NC(=O)c3cccc([N+](=O)[O-])c3)cc2)cc1,.,.,.,3899,.,2,-8
CN(C(=O)CSc1nnc(Nc2ccccc2)s1)C1CCS(=O)(=O)C1 (stereo not drawn),0.9,-9,15,2449,1,4,-28
COC(=O)c1ccccc1NC(=O)CNc1cc(OC)c(OC)cc1C,2.1,11,11,1768,8,16,-17
CC1CCCN(Cc2nc3c(c(=O)n(C)c(=O)n3C)n2CCc2ccccc2)C1 (stereo not drawn),4.5,.,.,2481,-3,3,-2
Cc1cccc(C(=O)Nc2nnc(S(=O)(=O)N3CCC(C)CC3)s2)c1,18,-1,3,4559,18,1,-1
COc1cccc(-n2nc(-c3ccnn3-c3cccc(Cl)c3)c(=O)n(C)c2=O)c1,5.3,12,8,4167,6,-1,-33
COc1cc(CC(=O)OCC(=O)Nc2ncc(Cl)cc2Cl)cc(OC)c1OC,1.1,.,.,4811,-3,1,5
CC(=O)Nc1ccc(NC=C(C#N)C#N)cc1,-3.0,1,0,4610,-1,2,-4
CC(=O)/C(=N\Nc1ccccc1Cl)Sc1nnc(-c2ccccc2)n1-c1ccccc1,.,.,.,2618,.,5,-22
COC(=O)c1sc(N2CCN(Cc3ccccc3)CC2)nc1N,5.8,6,-4,2990,2,3,-14
Cc1cc(=O)[nH]c(Nc2cccc(Cl)c2C)n1,0.9,5,10,3512,6,4,-21
O=C(Cn1c(=O)c2c3c(sc2n(Cc2ccccc2)c1=O)CCCC3)NCCO,0.0,2,-8,3158,5,-2,-22
O=C(NCc1ccco1)c1ccc(NC(=O)C2COc3ccccc3O2)cc1 (stereo not drawn),-7.1,.,.,4182,-4,0,-4
CCOc1cc(C(=O)N[C@@H](C)C(=O)N2CCC3(CC2)NCCc2[nH]cnc23)cc(OCC)c1OCC,-1.5,4,12,5719,-4,-3,-6
CC(=O)c1cccc(NC(=O)C2C3C=CC(C4CC34)C2C(=O)O)c1 (stereo not drawn),3.9,.,.,2343,5,-2,6
CN(C)CCNC(=O)/C(=C/c1ccc(-c2cccc([N+](=O)[O-])c2)o1)NC(=O)c1ccccc1,2.8,1,9,2691,0,-15,-16
CCCc1cc(NCCCN(C)C)n2c(nc3ccccc32)c1C#N,3.6,4,7,3172,2,15,-8
CCn1ncc(-c2ccnc3cc(C(=O)O)nn23)c1C,4.6,-2,11,5069,13,-1,-16
# Next part
SMILES,RN4220 kill,Mtb hypoxia rep,Mtb hypoxia rep growth,Autofluor counter,ugtP null kill,BJeLR viability,PrP 5UTR inh
O=c1c2cc(O)c(O)cc2oc2cc(O)c(C3OC(CO)C(O)C(O)C3O)c(O)c12 (stereo not drawn),1.0,.,.,5041,-10,5,4
CC(=O)C1C(N2CC2)CC2C3CC=C4CC(O)CCC4(C)C3CCC21C (stereo not drawn),1.6,1,1,3291,0,.,-9
COCCCn1[nH]c2c3c(ccc2c1=O)C(=O)c1ccccc1C3=O,86*,-14,-12,3001,84*,8,-27
CC(C)(C)CC(=O)NC(=S)NCc1ccco1,7.5,11,17,4221,5,4,-9
c1cncc(-c2noc(-c3cccc4ccccc34)n2)c1,5.1,2,5,10405,-6,-1,-72
O=C(NC1CCC(O)CC1)c1ccccc1OCc1ccc(F)cc1 (stereo not drawn),1.1,3,0,5103,2,5,-26
COc1ccc(-c2cc(-c3c(O)c(OC)c4occc4c3OC)[nH]n2)cc1,3.8,9,8,21696*,-13,2,-25
Cn1nc(C(=O)Nc2ccccc2Cl)cc1C(=O)Nc1ccccc1Cl,5.0,2,4,3627,5,0,-12
Cc1nc(C(=O)Nc2ccccc2)sc1C1(C)CC(c2cccc([N+](=O)[O-])c2)=NO1 (stereo not drawn),-0.6,7,12,3553,-18,-8,-20
CCc1nc(C)ccc1OCC(=O)N(CC)CC,2.0,6,-10,10055,3,-8,-13
COCCC(=O)Nc1c(-c2ccccc2)c2cc(Br)ccc2[nH]c1=O,2.6,0,-1,2951,8,-11,-16
CCNC(=O)CCn1nc(-c2ccc(C)cc2)c2ccccc2c1=O,9.3,-5,-7,4063,5,1,-10
N#Cc1cc2ccccc2nc1SCc1ccccn1,3.6,11,1,10679,-5,.,.
Oc1cnc2ccccc2c1CN1CCOCC1,-1.2,.,.,3311,1,0,-20
O=C(CNc1cccc2ccccc12)N/N=C/c1cccc(Oc2ccccc2)c1,.,.,.,2571,.,-4,-11
CCN(C(=O)c1cc(Cl)ccc1OC)c1ccccc1C,-1.7,8,13,.,-4,-5,-13
CCC(C)NC(=O)C1CCN(S(=O)(=O)c2ccc3nc4c(c(C(=O)O)c3c2)CCCCC4)CC1 (stereo not drawn),0.2,-1,10,6028,-2,4,-14
O=C(CSc1nnc(NC(=O)c2ccco2)s1)NC1CCCC1,2.6,0,1,6264,4,-10,-11
Cc1cccnc1NC(=O)C1CCCN1S(=O)(=O)c1ccc(Cl)cc1 (stereo not drawn),-1.0,6,1,4419,2,4,-20
COc1ccccc1CNC(=O)COC(=O)Cc1c(Cl)cccc1Cl,3.4,8,1,2316,-2,-4,-34
O=C(Cn1c2c(sc1=O)C1c3ccccc3OCC1CS2)Nc1ccc(Cl)c(Cl)c1 (stereo not drawn),-12,1,-5,1992,-46,-10,-15
COc1ccc(C)cc1S(=O)(=O)N1c2ccc(C)cc2C2CN(C)CCC21 (stereo not drawn),0.5,10,1,?,3,.,-20
Cc1ccc(C(=O)NN=Cc2ccoc2)cc1C,1.0,0,28,.,-6,.,.
CCc1ccccc1NC(=O)N1C2CCCC1CC(NC(=O)C(C)(C)C)C2 (stereo not drawn),4.2,-61,-4,10107,7,5,-18
COc1ccccc1OCCCC(=O)Nc1ccc(N2CCOCC2)cc1,-2.2,12,3,4098,8,-8,-38

# Some of the entries above, set out differently.
smiles | RN4220 kill | Mtb hypoxia rep | Mtb hypoxia rep growth | Autofluor counter | ugtP null kill | BJeLR viability | PrP 5UTR inh
CCC(C)NC(=O)C1CCN(S(=O)(=O)c2ccc3nc4c(c(C(=O)O)c3c2)CCCCC4)CC1 (stereo not drawn) | 0.2 | -1 | 10 | 6028 | -2 | 4 | -14
O=C(CSc1nnc(NC(=O)c2ccco2)s1)NC1CCCC1 | 2.6 | 0 | 1 | 6264 | 4 | -10 | -11

# In a second layout: entries from further up
SMILES: O=C(Cn1c2c(sc1=O)C1c3ccccc3OCC1CS2)Nc1ccc(Cl)c(Cl)c1 (stereo not drawn)
  RN4220 kill = -12	Mtb hypoxia rep = 1	Mtb hypoxia rep growth = -5	Autofluor counter = 1992	ugtP null kill = -46	BJeLR viability = -10	PrP 5UTR inh = -15

SMILES: COc1ccc(C)cc1S(=O)(=O)N1c2ccc(C)cc2C2CN(C)CCC21 (stereo not drawn)
  RN4220 kill = 0.5	Mtb hypoxia rep = 10	Mtb hypoxia rep growth = 1	Autofluor counter = ?	ugtP null kill = 3	BJeLR viability = .	PrP 5UTR inh = -20

SMILES: Cc1ccc(C(=O)NN=Cc2ccoc2)cc1C
  RN4220 kill = 1.0	Mtb hypoxia rep = 0	Mtb hypoxia rep growth = 28	Autofluor counter = .	ugtP null kill = -6	BJeLR viability = .	PrP 5UTR inh = .

SMILES: CCc1ccccc1NC(=O)N1C2CCCC1CC(NC(=O)C(C)(C)C)C2 (stereo not drawn)
  RN4220 kill = 4.2	Mtb hypoxia rep = -61	Mtb hypoxia rep growth = -4	Autofluor counter = 10107	ugtP null kill = 7	BJeLR viability = 5	PrP 5UTR inh = -18

# (cont.)
SMILES,RN4220 kill,Mtb hypoxia rep,Mtb hypoxia rep growth,Autofluor counter,ugtP null kill,BJeLR viability,PrP 5UTR inh
COc1cccc(/C=C2/Sc3ccc(C(=O)NCCCN4CCCC4)cc3NC2=O)c1,-3.4,8,13,6824,-4,11,19
Cc1ccnc(N2CCC(C(=O)NCc3ccc(F)cc3)CC2)n1,-1.5,14,8,4828,9,-4,-10
Nc1[nH]nc2nc(-c3ccccc3)[nH]c(=O)c12,1.9,-6,-20,3211,0,5,-25
Cc1cccc(CC(=O)NCC2CCCCC2)c1,-0.4,.,.,3687,7,10,-15
COc1cccc2sc(=NC(=O)CS(=O)(=O)c3ccc(F)cc3)n(C)c12,15,7,-5,?,2,3,-11
O=c1oc2ccccc2c(O)c1C=Nc1cccnc1,3.5,3,20,4691,0,-2,-34
CC(C)c1nc(-c2ccccn2)no1,3.2,-1,3,21659*,5,.,-15
Cc1ccc(C(=O)NNC(=O)CSc2nnc(C3CC3)n2C)cc1,-1.6,9,15,5664,-1,-11,-2
O=C(c1cc(F)ccc1F)C1CCCN(C(=O)CCCN2CCCCC2=O)C1 (stereo not drawn),1.8,-3,-8,2685,2,-3,-18
CCN(C[C@H]1N[C@@](Cc2ccccc2)(C(=O)OC)[C@H]2C(=O)N(Cc3ccccc3)C(=O)[C@@H]12)C(=O)Nc1ccc(Cl)cc1,-8.4,-8,2,3767,-22,.,-32
O=C(Cc1ccccc1)c1c[nH]c(C(=O)C(Cl)(Cl)Cl)c1,2.5,13,1,3836,9,13,-29
CC(C)(C)c1ccc(C(=O)NNC(=O)Cc2cccc3ccccc23)cc1,-4.6,4,5,10770,24,-15,-39
O=[N+]([O-])c1cccc(/C=C/c2ccc3cccc(O)c3n2)c1,14,-10,2,3962,5,-4,-31
O=C(COc1nsnc1N1CCOCC1)N/N=C/c1ccccc1O,.,.,.,2276,.,-4,-7
CCOc1ccc(N(CC(=O)O)S(=O)(=O)c2cccnc2)cc1,-4.4,.,.,6103,-3,5,-11
O=C(Cn1cnc2ccccc21)Nc1ccc2c(c1)OCCCO2,0.9,17,10,3706,1,.,-23
CC(=O)CC(C)(C)n1c[n+](C)nn1,4.1,4,6,8660,-2,5,-13
O=C(CC1CC=CCC(NC(=O)OCC2c3ccccc3-c3ccccc32)C(=O)OC(c2ccccc2)CNC1=O)NCCO (stereo not drawn),7.0,6,8,.,2,.,.
S=c1nc(-c2ccccc2Cl)n(Cc2cccnc2)c2c1CCCC2,1.6,-2,0,2466,9,-10,-30
CC(C)(C)NC(=O)COC(=O)CCC(=O)c1ccc(Cl)cc1,3.9,1,3,4869,-1,8,-7
c1ccc2c(c1)CCN(c1ncnc3c1[nH]c1ccccc13)C2,3.0,16,20,3929,-16,15,-17
CC1(C)OC2CCN3C(C(O)COS3(=O)=O)C2O1 (stereo not drawn),2.1,1,11,3055,2,12,-7
O=C(NC1CCCC1)c1ccc(CS(=O)(=O)c2ccc(Br)cc2)o1,-1.4,.,.,6257,7,-6,8
CCn1cc(/C=N/NS(=O)(=O)c2ccc(OC)cc2)c(C)n1,.,.,.,2186,.,3,11
CC(CCC(C)OC1OC(C)C(O)CC1O)OC1OC(C)C(O)CC1O (stereo not drawn),1.8,10,10,.,8,.,.
CC(C)Cn1c(SC(C)C(=O)Nc2ccc3c(c2)OCCO3)nc2ccccc2c1=O (stereo not drawn),-1.2,6,13,5457,10,-17,-10
